MLL AF4-AF9 inh: inhibitors of AF4 peptide binding to AF9, primary screen, biochemical, AlphaScreen, biotin-AF4 peptide, FLAG-AF9, single point; Protein AF-9 (Homo sapiens), P42568; inhibition, % at 10 µM; actives 0.47% (n = 350,000);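 active means every replicate reaching a set inhibition limit, whatever the replicate mean, cut at about 25% in these data; inconclusive means mean inhibition reaches that limit but some replicates miss it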;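 further: 0% = plate neutral control median and 100% = total signal loss; the record names both 10 and 1 µM as test concentration; the first replicate is given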
Target sequence (P42568 whole entry, looked up): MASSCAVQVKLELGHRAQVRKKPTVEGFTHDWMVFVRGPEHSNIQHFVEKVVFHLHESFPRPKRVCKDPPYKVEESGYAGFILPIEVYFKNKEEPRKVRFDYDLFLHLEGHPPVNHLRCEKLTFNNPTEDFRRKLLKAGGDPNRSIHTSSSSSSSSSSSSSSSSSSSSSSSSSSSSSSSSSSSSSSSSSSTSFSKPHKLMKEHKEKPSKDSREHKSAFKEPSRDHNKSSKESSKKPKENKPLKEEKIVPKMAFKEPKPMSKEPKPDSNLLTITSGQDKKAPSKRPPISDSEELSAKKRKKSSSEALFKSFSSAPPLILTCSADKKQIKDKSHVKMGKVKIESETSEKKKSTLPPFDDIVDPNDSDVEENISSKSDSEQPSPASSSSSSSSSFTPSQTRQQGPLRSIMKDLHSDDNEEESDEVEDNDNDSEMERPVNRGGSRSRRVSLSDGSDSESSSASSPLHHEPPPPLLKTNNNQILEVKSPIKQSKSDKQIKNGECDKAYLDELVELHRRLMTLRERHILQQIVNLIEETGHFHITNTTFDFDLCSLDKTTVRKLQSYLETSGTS
FGF22 binding: binders of human FGF22 protein, primary screen, FGF22 synaptogenesis inhibitor project, biophysical, thermal shift, single point; Fibroblast growth factor 22 (Homo sapiens), Q9HCT0; actives 1.5% (n = 340,000); calls only at 9.99 µM; recombinant FGF22 thermal shift, SYPRO orange fluorescence; percent of sucrose octasulfate shift, DMSO zero;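 active means melting point raised past a set limit in the mean and every replicate; inconclusive means no clear call; three in four hits are not shown here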
Target sequence (Q9HCT0 whole entry, looked up): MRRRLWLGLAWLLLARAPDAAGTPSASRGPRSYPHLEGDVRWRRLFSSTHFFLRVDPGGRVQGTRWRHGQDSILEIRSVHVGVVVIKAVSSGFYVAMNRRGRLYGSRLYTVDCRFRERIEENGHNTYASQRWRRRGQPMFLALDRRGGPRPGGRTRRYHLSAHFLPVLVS
Ecoli rRNA inh: reduced GFP signal of wild-type E. coli, primary screen, bacterial rRNA inhibitor project, GFP/RFP fluorescence, OD600, single point; E. coli WT GFP vs humanized-ribosome RFP mutants, 24 h; hits give low values; DMSO median 0, no signal -100; GFP signal change (wild-type ribosome), % (test concentration not listed); actives 1.6% (n = 350,000); AID 720706, 2013;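 active means significant combined selectivity score with lowered wild-type GFP, culture density cut under 30%, mutant RFP and density less affected; inactive means any of these conditions unmet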; further: one replicate is shown; some compounds called inactive have numbers as strong as hits
Ecoli rRNA inh OD600: recorded beside Ecoli rRNA inh, whose call it bears; OD600 change, %; measured here: OD600 growth;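 optical density of the mix in the first replicate; 0 = DMSO median and -100 = no signal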
Ecoli rRNA inh RFP: also measured in Ecoli rRNA inh; calls as there; RFP signal change, %; measured here: RFP humanized mutant strains;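 first replicate; 0 = DMSO median and -100 = no signal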
* hit, by the source's call; i = inactive; ? = inconclusive; & = joins results of further samples. The list is partial. The share of hits here may be higher or lower than overall.

entry | canonical_smiles | MLL AF4-AF9 inh | FGF22 binding | Ecoli rRNA inh
1 | COc1ccc2c3c([nH]c2c1)[C@@H](CO)N(C(=O)C1CCC1)CC31CCN(C)CC1 | 1.2 | i | 7
2 | COc1ccccc1S(=O)(=O)N1CC[C@H]2[C@H](CO)Nc3ccc(-c4ccc(F)cc4)cc3[C@H]21 | 4.0 | i | -3
3 | COc1ccc2c3c([nH]c2c1)[C@@H](CO)N(C(=O)C1CCCC1)CC31CN(Cc2cccc(F)c2)C1 | 20 | i | -56
4 | C[C@@H]1CCCCO[C@@H](CN(C)Cc2ccc(C(=O)O)cc2)[C@@H](C)CN([C@H](C)CO)C(=O)c2cc(NC(=O)Cc3ccccc3)ccc2O1 | 3.3 | i | 4
5 | COc1ccc(NC(=O)N(C)C[C@@H]2OCCCC[C@@H](C)Oc3ccc(NC(=O)CCC(F)(F)F)cc3C(=O)N([C@@H](C)CO)C[C@H]2C)cc1 | -0.8 | i | 1
6 | Cc1ccc(S(=O)(=O)N[C@H]2CC[C@@H](CCNC(=O)C3CCCC3)O[C@H]2CO)cc1 | 0.5 | i | 2
7 | CCCNC(=O)C1(C)CCN(Cc2cc(C(F)(F)F)ccc2Cl)C1 (stereo not given) | -1.6 | i | -10
8 | CN1CCN(C(=O)C[C@H]2CC[C@H]3[C@H](COc4ccc(NC(=O)c5cscn5)cc4C(=O)N3C)O2)CC1 | 0.0 | i | 1
9 | CCN(CC)C(=O)[C@H]1CC(CC(=O)NCc2ccc(OC)c(OC)c2)C(=O)N2CCc3c([nH]c4ccc(OC)cc34)[C@]12C (stereo not given in full) | -0.9 | i | 1
10 | Oc1ccccc1C=NNC(=S)Nc1ccc(F)cc1 | ? | i | -52
11 | CC1(C)CC(Cc2cccc(C(F)(F)F)c2)N(C(=O)OC(C)(C)C)C1 (stereo not given) | -1.0 | i | 28
12 | C[C@H](CO)N1C[C@H](C)[C@@H](CN(C)Cc2ccc3c(c2)OCO3)OCCCC[C@H](C)Oc2ccc(NC(=O)CCC(F)(F)F)cc2C1=O | 3.6 | i | -2

entry | Ecoli rRNA inh OD600 | Ecoli rRNA inh RFP
1 | 6 | -1.4
2 | -8 | 11
3 | -77 | -16
4 | -3 | -4.3
5 | 3 | -1.2
6 | 7 | 2.0
7 | -23 | -2.0
8 | 5 | 0.0
9 | -3 | 0.3
10 | -79 | -20
11 | 9 | 4.0
12 | 3 | -2.4

New compounds follow
entry | canonical_smiles | MLL AF4-AF9 inh | FGF22 binding | Ecoli rRNA inh
13 | C[C@@H]1CCCCO[C@@H](CN(C)C(=O)Nc2ccccc2)[C@H](C)CN([C@H](C)CO)C(=O)c2cc(NC(=O)Nc3ccc(F)cc3)ccc2O1 | -0.1 | i | -4
14 | Cc1c(C(=O)NCc2ccc(Cl)c(Cl)c2)sc(=O)n1Cc1ccccc1F | 3.9 | i | -10
15 | C[C@@H](O)C#Cc1ccc([C@H]2[C@H]3CN(C(=O)Nc4ccccc4)CCCCN3[C@H]2CO)cc1 | -2.8 | i | 1
16 | C[C@@H]1CCCCO[C@H](CN(C)Cc2ccc(Cl)c(Cl)c2)[C@@H](C)CN([C@H](C)CO)C(=O)c2cc(NS(=O)(=O)c3ccc(Cl)cc3)ccc2O1 | -2.8 | i | 4
17 | COCC(=O)Nc1ccc2c(c1)[C@H]1C[C@@H](CC(=O)NCc3ccccc3F)O[C@@H](CO)[C@H]1O2 | -0.8 | i | 0
18 | CC(C)NC(=O)N(C)C[C@@H]1OCc2ccccc2-c2ccccc2C(=O)N([C@H](C)CO)C[C@H]1C | -1.2 | i | 5
19 | CCNC(=O)[C@@H]1[C@@H](CO)[C@@H]2Cn3c(ccc(-c4cccc(F)c4)c3=O)[C@H]1N2C(=O)c1cnccn1 | -23 | i | -2
20 | C[C@H](CO)N1C[C@H](C)[C@H](CN(C)S(=O)(=O)c2ccc(F)cc2)Oc2c(NS(=O)(=O)c3ccc(F)cc3)cccc2C1=O | 1.5 | i | -8
21 | O=C(CC1CC1)N1[C@H](CO)[C@@H]2c3ccccc3N(S(=O)(=O)c3ccccc3)C[C@@H]21 | 1.1 | i | -5
22 | C[C@@H]1CN([C@@H](C)CO)C(=O)Cc2cc(NC(=O)C3CC3)ccc2O[C@H]1CN(C)C(=O)Nc1ccc(C(F)(F)F)cc1 | -0.1 | i | 4
23 | C[C@H](CO)N1C[C@H](C)[C@@H](CN(C)Cc2ccc3c(c2)OCO3)OCCCC[C@H](C)Oc2ccc(NC(=O)c3ccccc3)cc2C1=O | 3.9 | i | -4
24 | COc1ccc(NC(=O)Nc2cccc3c2O[C@H](CN(C)S(=O)(=O)c2ccc(Cl)cc2)[C@H](C)CN([C@H](C)CO)C3=O)cc1 | 0.3 | i | -18

entry | Ecoli rRNA inh OD600 | Ecoli rRNA inh RFP
13 | 1 | -1.3
14 | -18 | 7.1
15 | 12 | 1.2
16 | 5 | -2.3
17 | 2 | -0.4
18 | 6 | -3.3
19 | 6 | -1.5
20 | -11 | 3.5
21 | 2 | 1.8
22 | 10 | -0.8
23 | -2 | -1.5
24 | -8 | -1.5

Continuation.
entry | canonical_smiles | MLL AF4-AF9 inh | FGF22 binding | Ecoli rRNA inh
25 | CN(C)C(=O)[C@H]1[C@H](CO)[C@H]2Cn3c(ccc(-c4ccccc4)c3=O)[C@@H]1N2CCc1ccccc1 | -1.7 | i | -1
26 | Nc1ccn(C2CCCCO2)c(=O)n1 (stereo not given) | -2.5 | i | 13
27 | C[C@@H]1CN([C@H](C)CO)C(=O)c2cccc(NC(=O)Nc3ccc4c(c3)OCO4)c2O[C@H]1CN(C)Cc1ccc(C(=O)O)cc1 | 0.9 | i | 4
28 | CC[C@]12c3[nH]c4cc(CCC(=O)N(C)C)ccc4c3CCN1C(=O)[C@@H](CC(=O)NCCCn1ccnc1)C[C@@H]2C(=O)N1CCN(C(=O)C2CC2)CC1 | 0.4 | i | 11
29 | O=C(c1[nH]c(C(F)(F)F)nc1-c1ccccc1)N1CCN(c2cccc(C(F)(F)F)n2)CC1 | -0.6 | i | -17
30 | O=C(C[C@H]1CC[C@H]2[C@@H](COC[C@@H](O)CN2C(=O)c2ccc(F)cc2)O1)Nc1nccs1 | -1.6 | i | 2
31 | Cc1ccc2c(=O)n3c(nc2c1)C(Cc1ccccc1)NC(=O)c1cccnc1-3 (stereo not given) | -3.1 | i | 3
32 | CC1(Cc2ccccc2C#N)C(=O)Nc2ccc(-c3ccccc3)cc21 (stereo not given) | -2.5 | i | -59
33 | C/C=C/c1cnc2c(c1)C(=O)N([C@@H](C)CO)C[C@@H](C)[C@@H](CN(C)Cc1cncnc1)O2 | -15 | i | 3
34 | CCCNC(=O)N1C[C@H](O)COC[C@H]2O[C@H](CC(=O)NCCCN3CCOCC3)CC[C@@H]21 | -8.3 | i | 2
35 | Cc1ccc(-c2ccc3c(c2)O[C@@H](CN(C)C(=O)C2CC2)[C@H](C)CN([C@@H](C)CO)S3(=O)=O)cc1 | 1.0 | i | -14
36 | N#C[C@H]1[C@H](c2ccccc2)[C@H](CO)N1S(=O)(=O)c1ccc(F)cc1 | -0.1 | i | -5

entry | Ecoli rRNA inh OD600 | Ecoli rRNA inh RFP
25 | 2 | 3.2
26 | 6 | -0.9
27 | 3 | 1.8
28 | 6 | 1.4
29 | -45 | -8.8
30 | 9 | 2.4
31 | 14 | 4.4
32 | -78 | -17
33 | 12 | -0.2
34 | -2 | 0.4
35 | -33 | 0.9
36 | 15 | -2.9

From entry 29 as far as 36, as listed above:
entry | canonical_smiles | MLL AF4-AF9 inh | FGF22 binding | Ecoli rRNA inh
29 | O=C(c1[nH]c(C(F)(F)F)nc1-c1ccccc1)N1CCN(c2cccc(C(F)(F)F)n2)CC1 | -0.6 | i | -17
30 | O=C(C[C@H]1CC[C@H]2[C@@H](COC[C@@H](O)CN2C(=O)c2ccc(F)cc2)O1)Nc1nccs1 | -1.6 | i | 2
31 | Cc1ccc2c(=O)n3c(nc2c1)C(Cc1ccccc1)NC(=O)c1cccnc1-3 (stereo not given) | -3.1 | i | 3
32 | CC1(Cc2ccccc2C#N)C(=O)Nc2ccc(-c3ccccc3)cc21 (stereo not given) | -2.5 | i | -59
33 | C/C=C/c1cnc2c(c1)C(=O)N([C@@H](C)CO)C[C@@H](C)[C@@H](CN(C)Cc1cncnc1)O2 | -15 | i | 3
34 | CCCNC(=O)N1C[C@H](O)COC[C@H]2O[C@H](CC(=O)NCCCN3CCOCC3)CC[C@@H]21 | -8.3 | i | 2
35 | Cc1ccc(-c2ccc3c(c2)O[C@@H](CN(C)C(=O)C2CC2)[C@H](C)CN([C@@H](C)CO)S3(=O)=O)cc1 | 1.0 | i | -14
36 | N#C[C@H]1[C@H](c2ccccc2)[C@H](CO)N1S(=O)(=O)c1ccc(F)cc1 | -0.1 | i | -5

entry | Ecoli rRNA inh OD600 | Ecoli rRNA inh RFP
29 | -45 | -8.8
30 | 9 | 2.4
31 | 14 | 4.4
32 | -78 | -17
33 | 12 | -0.2
34 | -2 | 0.4
35 | -33 | 0.9
36 | 15 | -2.9

(list continues)
entry | canonical_smiles | MLL AF4-AF9 inh | FGF22 binding | Ecoli rRNA inh
37 | COc1ccc(S(=O)(=O)Nc2ccc3c(c2)[C@H]2C[C@H](CC(=O)O)O[C@H](CO)[C@H]2O3)cc1 | -0.9 | i | 0
38 | O=C(C[C@H]1CC[C@H]2[C@@H](COC[C@@H](O)CN2S(=O)(=O)c2ccc(Cl)cc2)O1)NCCN1CCCC1 | -9.5 | i | 5
39 | O=C1NC(Cc2ccccc2)c2nc3ccc(Cl)cc3c(=O)n2-c2cc3ccccc3cc21 (stereo not given) | 5.0 | i | 10
40 | C[C@@H]1CCCCO[C@H](CN(C)S(=O)(=O)c2cn(C)cn2)[C@H](C)CN([C@@H](C)CO)C(=O)c2cc(NS(=O)(=O)c3ccc(F)cc3)ccc2O1 | -2.8 | i | -7
41 | CC(C)CCN(C(=O)c1cn2ccccc2n1)c1c(N)n(Cc2ccccc2)c(=O)[nH]c1=O | 0.9 | i | -17
42 | COc1ccc(C(=O)N2C[C@@H]3[C@H](c4ccccc42)[C@@H](CO)N3Cc2ccc(Cl)cc2)cc1 | 0.0 | i | -23
43 | C[C@@H]1CCCCO[C@H](CN(C)C(=O)Nc2ccc(F)cc2)[C@@H](C)CN([C@H](C)CO)C(=O)c2cc(N(C)C)ccc2O1 | 4.7&-2.9&0.2 | i | 22&-1
44 | COc1ccc(NC(=O)N(C)C[C@H]2OCCCC[C@H](C)Oc3ccc(NC(=O)NC4CCCCC4)cc3C(=O)N([C@@H](C)CO)C[C@@H]2C)cc1 | 2.6 | i | 1
45 | O=C(Nc1ccccc1)[C@H]1[C@H](CO)[C@H]2Cn3c(cccc3=O)[C@H]2N1C(=O)C1CCC1 | -2.0 | i | -1
46 | COc1cccc(NC(=O)N2C[C@H](O)COC[C@H]3O[C@@H](CC(=O)N(C)C)CC[C@@H]32)c1 | -4.8 | i | 5
47 | CC(C)c1cn(CC[C@@H]2CC[C@H](NC(=O)c3cccc(F)c3)[C@@H](CO)O2)nn1 | -1.8 | i | 0
48 | COc1cccc(CN2CC3(C2)CN(C(=O)C2CC2)[C@H](CO)c2[nH]c4cc(OC)ccc4c23)c1 | 19 | i | -2

entry | Ecoli rRNA inh OD600 | Ecoli rRNA inh RFP
37 | 1 | -0.4
38 | 7 | -0.4
39 | 20 | 8.6
40 | -7 | -1.6
41 | 2 | 9.2
42 | -27 | 2.2
43 | 12&-2 | 5.5&-1.3
44 | 2 | 2.6
45 | -5 | -4.1
46 | 0 | 0.0
47 | 0 | -1.3
48 | -7 | 2.2

The results go on.
entry | canonical_smiles | MLL AF4-AF9 inh | FGF22 binding | Ecoli rRNA inh
49 | C[C@@H]1CN([C@H](C)CO)C(=O)CCCn2nncc2CO[C@@H]1CN(C)S(=O)(=O)c1ccc(Oc2ccccc2)cc1 | 4.6&-3.1&3.1 | i | 3&-3
50 | Cc1ccc(S(=O)(=O)Nc2ccc3c(c2)C(=O)N([C@@H](C)CO)C[C@H](C)[C@H](CN(C)Cc2ccncc2)OCCCC[C@@H](C)O3)cc1 | 0.8 | i | 3
51 | COc1ccc(OCCCN2CCC(C(O)(c3ccccc3)c3ccccc3)CC2)cc1 | 7.2 | i | -56
52 | O=C(C[C@H]1C=C[C@@H](NC(=O)Nc2ccc(F)cc2)[C@@H](CO)O1)NCCN1CCCC1 | 3.8 | i | 2
53 | COCC(=O)Nc1ccc2c(c1)OC[C@H](C)N(C(=O)COC)C[C@H](C)[C@@H](OC)CN(C)C2=O | -20 | i | 5

entry | Ecoli rRNA inh OD600 | Ecoli rRNA inh RFP
49 | -7&-50 | 0.4&25
50 | -5 | -0.8
51 | -79 | -19
52 | 0 | 1.7
53 | 1 | -1.2
